Six1-Eya2 blk: blocks human Six1 binding to Eya2. activity change, % (no concentration beside the values). hit rate 0.56% among 360,000. AlphaScreen GST-Six1/His-Eya2 binding, biochemical; active compounds read low; control for the full effect not named in the record. Q15475+O00167; in the data active = activity change below about -65%; inconclusive = about -30% to -65%; inactive = above about -30%; also: % is scaled to controls: 0 for no effect and ±100 for the full control effect
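AlphaScreen luminescence read after one hour at 37 °C in darkness. Pin-transferred compounds met GST-Six1 and His-Eya2 protein (5X stock 250 nM/500 nM) plus glutathione donor and Ni-chelate acceptor beads (5X, 50 ug/mL).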
TRPML1 inh: inhibitors of human TRPML1 channel | Q9GZU1 | TRPML1-inducible cells, Ca2+ dye fluorescence, FDSS; active compounds read low; inhibition of EC80 agonist-evoked calcium signal | activity change, negative = inhibition, % (test concentration not listed) | hit rate 0.02% among 390,000 | AID 624415; in the data active means activity change below about -50%; inconclusive means about -30% to -50%; inactive means above about -30%;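 also: stimulus is agonist 54-4 at its EC80 concentration; % is scaled to controls: 0 for no effect and ±100 for the full control effect; compound concentration not given in the record; the text of the record puts the active cut at -80%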
Target sequence (Q9GZU1 whole entry, looked up): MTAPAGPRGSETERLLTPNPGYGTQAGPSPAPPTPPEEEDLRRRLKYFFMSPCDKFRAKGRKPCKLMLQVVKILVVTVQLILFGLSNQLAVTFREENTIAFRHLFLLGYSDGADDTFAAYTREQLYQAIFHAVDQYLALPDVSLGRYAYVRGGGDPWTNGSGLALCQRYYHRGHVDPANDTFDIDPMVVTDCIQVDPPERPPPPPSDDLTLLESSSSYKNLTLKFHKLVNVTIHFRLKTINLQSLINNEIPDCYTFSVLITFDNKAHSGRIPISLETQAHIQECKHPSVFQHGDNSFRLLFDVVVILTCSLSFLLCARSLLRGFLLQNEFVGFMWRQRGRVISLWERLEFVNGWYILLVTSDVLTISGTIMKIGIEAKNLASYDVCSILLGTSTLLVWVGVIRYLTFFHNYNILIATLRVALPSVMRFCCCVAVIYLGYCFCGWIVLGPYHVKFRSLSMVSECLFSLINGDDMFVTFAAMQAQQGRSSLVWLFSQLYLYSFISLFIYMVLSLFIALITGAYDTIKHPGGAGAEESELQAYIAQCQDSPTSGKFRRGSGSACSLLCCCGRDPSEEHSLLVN
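TRPML1-DL cells, Tet-induced overnight (~16 h, 37 °C) at 1,500 cells/well, were loaded with Ca8 no-wash dye plus quencher for 45-90 min at room temperature. Compounds were pinned during FDSS kinetic reading; agonist 54-4 at EC80 (4 uM final) then added.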
CtBP-E1A inh: CtBP/E1A binding inhibition | AlphaScreen GST-E1A/His-CtBP binding, 1536-well; active compounds read low; control for the full effect not named in the record | activity change, % (concentration not given with the values) | hit rate 0.49% among 340,000 | AID 651724; in the data active means activity change below about -65%; inconclusive means about -30% to -65%; inactive means above about -30%; also: % is scaled to controls: 0 for no effect and ±100 for the full control effect
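AlphaScreen with 125 nM GST-E1A and 125 nM His-CtBP (5X stocks) in Tris pH 8.0, 300 mM NaCl, BSA, Tween 20, TCEP. Compounds preincubated 2 h at 37 deg C, then glutathione donor/nickel acceptor beads added for 1 h at 37 deg C in dark.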
D2 ag: agonists of human D2 dopamine receptor (beta-arrestin). P14416. DiscoveRx PathHunter D2 beta-arrestin, luminescence, 90 min; 100% = 57 uM dopamine signal. hit rate 0.084% among 360,000. AID 624465. activation, % (no concentration beside the values); in the data active = activation above about 40%; inconclusive = about 15% to 40%; inactive = below about 15%; also: compound concentration not given in the record; the text of the record calls up to 30% inactive
Target sequence (P14416 whole entry, looked up): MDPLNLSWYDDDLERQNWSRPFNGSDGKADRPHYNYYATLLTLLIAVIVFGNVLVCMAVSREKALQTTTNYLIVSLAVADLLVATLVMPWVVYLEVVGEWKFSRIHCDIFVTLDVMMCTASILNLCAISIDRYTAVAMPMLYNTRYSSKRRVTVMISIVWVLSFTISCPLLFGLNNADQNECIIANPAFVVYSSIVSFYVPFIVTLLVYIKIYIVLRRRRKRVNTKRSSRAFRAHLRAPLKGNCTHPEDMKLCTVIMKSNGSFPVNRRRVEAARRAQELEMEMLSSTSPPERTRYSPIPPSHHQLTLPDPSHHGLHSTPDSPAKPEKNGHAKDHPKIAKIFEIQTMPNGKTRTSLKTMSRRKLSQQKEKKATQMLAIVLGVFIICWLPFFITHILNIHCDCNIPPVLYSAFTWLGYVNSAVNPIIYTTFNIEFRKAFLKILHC
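Agonist mode: compounds alone added to overnight-plated D2 PathHunter cells for 90 min at 37 C, with 57 uM final dopamine (EC100) defining full response. Beta-arrestin recruitment detected by chemiluminescent reagent, read after 1 h at ambient temperature.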
PINK1 modulator: PINK1 expression modulation. PINK1 immunofluorescence, high-content cytometry, 24 h. Potency, µM (series often up to 76.6 µM), inactives show top-dose activation (PINK1 increase), most hits filed as activators. hit rate 0.2% among 410,000. AID 624263; active = well fitted activation curve with a large enough effect; inconclusive = small, poorly fitted or top-dose-only effect; inactive = flat fitted curve, though single readings scatter; cell line not stated here;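 also: potency is read from the fitted curve at half-maximal effect; % of control where 0% means no effect; nearly all actives have a fitted effect of over 65% in size; a mitochondrial uncoupler was the plate control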
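Decision-based qHTS: stable cells, 24 h exposure to five compound concentrations, CCCP as control. Fixed cells stained for PINK1 plus nuclear, mitochondrial and cell markers, cytometer read.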
TRPML1 ag: activates the human TRPML1 channel; Q9GZU1; TRPML1-expressing cells, Ca2+ dye fluorescence, FDSS; host cell line not named in the record; reference of the full effect not given here; activation, % (concentration not given with the values); hit rate 0.12% among 410,000; AID 624414; in the data active = activation above about 50%; inconclusive = about 30% to 50%; inactive = below about 30%; also: 0% is about no effect; the text of the record puts the active cut at 80%
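Calcium fluorescence on an FDSS kinetic reader gave the read-out. Tet-induced TRPML1-DL cells were plated overnight, dye-loaded (Ca8 with quencher, 45-90 min, room temperature, dark), then read 110 s after compound addition, and again 110 s after 4uM final 54-4 (EC80).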
Numbers without * were called inactive; ? = inconclusive; . = no result given; & = joins results of further samples; [ ] = remark or other dose.

SMILES	Six1-Eya2 blk	TRPML1 inh	CtBP-E1A inh	D2 ag	PINK1 modulator	TRPML1 ag
CCOC(=O)Cn1c(=O)oc2cc(S(=O)(=O)NCC3CCCO3)ccc21 (stereo not drawn)	6	4	4	-2.5	-0.4%	0.1
O=C(NNC(=O)c1ccccc1[N+](=O)[O-])c1ccc(NS(=O)(=O)c2cccs2)cc1	1	15	-7	-2.3	0.7%	0.5
CCCCCCCCNC(=O)c1cnsn1	4	-6	13	-2.6	3.7%	-0.2
CC(C)CCN1CCN(Cc2ccc(N3CCNC3=O)cc2)CC1CCO (stereo not drawn)	2	-21	.	-3.1	0.1%	0.0
Cc1cc(C)c(S(=O)(=O)c2ccccc2)c(OC(=O)c2c(F)cccc2F)n1	-2	-5	7	-1.4	-0.8%	2.2
COc1ccc(NC(=O)CSc2n[nH]c(-c3ccncc3)n2)cc1Cl	1	3	-1	2.3	-0.7%	0.7
CN(CC(=O)Nc1cccc(F)c1)C(=O)c1ccc(C2SCCS2)cc1	6	3	-22	-0.8	0.9%	-0.5
Cc1ccc(N2CC(C(=O)NC3CCCCCC3)CC2=O)cc1 (stereo not drawn)	-3	25	5	-4.2	-1.5%	-0.7
O=C(Nc1cccc(C(=O)O)c1)/C(=C\c1ccc2c(c1)OCO2)NC(=O)c1ccco1	0	-17	-2	-6.2	1.7%	0.0
CCCN1C(C)C(C(=O)OCC)=CN(Cc2ccc(Br)cc2)S1(=O)=O (stereo not drawn)	25	-10	36	2.2	1.4%	0.2
COc1ccccc1-c1cc2nc(C)cc(C)n2n1	-2	11	5	-2.3	0.6%	0.1
Cc1ccccc1NC(=O)C1CCN(C(=O)N2CCOc3ccccc32)CC1	-1	-9	6	-0.7	2.8%	0.0
O=C(Nc1ccc(C(=O)N2CCOCC2)cc1)c1cc(-c2cccnc2)nc2ccc(Cl)cc12	-4	1	-17	2.6	-0.9%	-0.2
CC(=NNC(=O)c1ccncc1)c1cc(Cl)ccc1Cl	4	-8	1	1.4	-0.3%	-0.6
O=C(NCCCn1ccnc1)c1ccc(N2CCCCC2)c([N+](=O)[O-])c1	0	12	2	-0.7	1.1%	0.5
CCc1nnc(NC(=O)c2ccc3c(c2)C(=O)N(CC)C3=O)s1	-1	0	3	-4.6	-0.7%	-0.6
Cc1c(C(C)(C)C)sc(=NC(=O)c2ccccc2O)n1C	0	-11	6	4.7	14%	1.0
CCCC(=O)Nc1nnc(CCOC)s1	-2	-3	-1	0.6	2.5%	-0.1
CCCC(=O)NC1C2CC3CC(C2)CC1C3 (stereo not drawn)	4	-9	1	0.2	-4.3%[38.3 µM]	0.7
CCC(=O)N(C)C[C@H]1Oc2cc(Br)ccc2S(=O)(=O)N([C@@H](C)CO)C[C@H]1C	8	4	-11	-7.1	1.2%	-0.5

Some entries already given, reduced to CtBP-E1A inh.
Molecule	CtBP-E1A inh
CCC(=O)N(C)C[C@H]1Oc2cc(Br)ccc2S(=O)(=O)N([C@@H](C)CO)C[C@H]1C	-11
O=C(NCCCn1ccnc1)c1ccc(N2CCCCC2)c([N+](=O)[O-])c1	2

(more compounds)
SMILES	Six1-Eya2 blk	TRPML1 inh	CtBP-E1A inh	D2 ag	PINK1 modulator	TRPML1 ag
NC(=O)c1c(NC(=O)CSc2nnc(-c3ccco3)n2N)sc2c1CCCC2	-29	2	-23	0.7	0.9%	-0.2
Cc1nc(Cl)sc1C(=O)Nc1cc(F)cc(F)c1	8	13	5	3.3	1.8%	-0.8
COc1cc(NC(=O)Cn2nc(C(F)(F)F)c(Br)c2C)cc([N+](=O)[O-])c1	-2	19	1	-1.6	?	2.2
O=C1N(Cc2cccc(Cl)c2)C[C@@H]2C[C@@H](c3c[nH]c4ccccc34)N3CCC[C@@]123	-6	23	-5	-3.5	3.7%	0.3
CN1OC[C@@H]2CN3C(=O)N(c4ccccc4)c4ccccc4[C@@H]3C[C@@H]21	7	16	1	-4.6	1.1%	0.3
CCc1c(C)nc2nncn2c1NCc1ccc(Cl)cc1	.	-16	.	.	-0.2%	0.9
CC(C)(C)C1CCc2c(sc(NC(=O)Cn3nnc(-c4ccccc4Cl)n3)c2C#N)C1 (stereo not drawn)	.	-16	.	.	1.4%	0.2
O=C(C/C(=N\NC(=O)c1ccccc1Br)C(F)(F)F)c1cccs1	-1	-11	19	-0.9	5.6%	-0.2
Cc1cccc(NC(=O)CN2C(=O)C(C)Oc3ccccc32)n1 (stereo not drawn)	0	-26	13	-3.1	0.4%	1.2
CCC1=C(OC(=O)N(CC)CC)N2C(=O)OC(=NCC(=O)OC)[C@]2(Cc2ccccc2)[C@H]2C1=CC[C@H]1C(=O)N(C)C(=O)[C@H]12	3	-5	-3	-2.7	-0.6%	-0.4
Cc1ccccc1CSCC(=O)c1c(N)n(C)c(=O)n(C)c1=O	-1	6	3	0.0	4.5%[38.3 µM]	0.2
O=[N+]([O-])c1ccc(-c2cnc(SCc3ccccc3Cl)[nH]2)cc1	-26	-12	-17	-1.2	?	0.1
COc1cc(Cl)c(C)cc1NC(=O)c1cc2ccc3cccnc3c2[nH]1	.	6	.	.	3.1%	3.4
CC(C)NC(=O)CN1CCN(c2ncccn2)CC1	4	-9	8	6.0	.	0.4
Cc1ccc(Nc2ccc(C(N)=O)cc2[N+](=O)[O-])cc1C	-9	13	.	-2.8	-1.1%	2.8
COc1ccc(Cl)cc1NC(=O)c1cc(C)nc2c1c(C)nn2-c1ccccc1	.	-15	.	.	2.9%	-0.3
Cn1cnnc1SCC(=O)N1CCN(C(=O)c2ccco2)CC1	4	-15	6	-6.8	-0.1%	-0.5
CCOC(=O)C(C)Sc1nnc(CNC(=O)c2ccc(OC)cc2)n1C1CCCCC1 (stereo not drawn)	-6	-3	-2	-3.6	8.7%[38.3 µM]	0.3
CSCCC(NS(=O)(=O)c1ccc2c(c1)oc(=O)n2C)C(=O)N1CCN(c2cc(C)ccc2C)CC1 (stereo not drawn)	.	-4	.	.	-0.5%	0.8
CC1CC(C)CN(CCCNC(=O)CN2C(=O)CSc3ccc(S(=O)(=O)N4CCCCC4)cc32)C1 (stereo not drawn)	-2	-18	0	-4.3	-1.0%	-0.3
CCN(CC)C(CNC(=O)CSc1nnnn1-c1c(C)cccc1C)c1ccco1 (stereo not drawn)	1	10	-3	-2.7	-1.1%	-1.2
COc1cc(C2N=C(N)Nc3nc4ccccc4n32)ccc1OCC(=O)O (stereo not drawn)	.	17	.	.	-0.3%	2.3
COc1c(Cl)cc(C(=O)Nc2cccnc2)cc1Cl	15	-12	26	4.8	-0.2%	-0.9
CCOC(=O)c1sc2nc(C)nc(SCC(N)=O)c2c1C	3	13	-1	-5.5	-2.1%	0.0
Cc1ccc(C(=O)NCC(=O)OCC(=O)N(CC(C)C)c2c(N)n(Cc3ccccc3)c(=O)[nH]c2=O)cc1	0	6	1	-2.6	-0.6%	0.0
COCCNCC(=O)Nc1nc(C)cs1	0	1	50	-0.1	-0.5%	0.7
Cc1c(NC(=O)CCN2C(=O)c3ccccc3C2=O)c(=O)n(-c2ccccc2)n1C	10	-11	3	-5.5	-0.8%	0.4
COc1cccc(NC(=O)Nc2ccncc2)c1	2	12	2	-5.4	-0.6%	4.0
O=C1OC(Nc2ncccn2)c2ccccc21 (stereo not drawn)	3	-10	10	-0.6	3.3%[38.3 µM]	0.2
O=C(Nc1ccc2oc(-c3ccc(Cl)c(Cl)c3)nc2c1)c1ncn[nH]1	-3	4	-3	-2.7	?	-0.4
COC(=O)c1ccc(C2C(C(=O)Nc3ccccc3C)=C(C)Nc3ncnn32)cc1 (stereo not drawn)	12	1	-2	-1.8	0.9%	-0.1
COc1cc(CNCCNC(=O)c2cccs2)cc(OC)c1OC	1	-13	1	2.2	-0.6%	1.6
COc1ccc(-c2cc3nc(C)c(CCC(=O)N4CCN(c5ccccn5)CC4)c(C)n3n2)c(OC)c1	-11	-17	-12	-2.8	12%	0.4
COC(=O)c1ccc2c(=O)n(CCCCCC(=O)N3CCN(c4ccc(OC)cc4)CC3)c(=O)[nH]c2c1	.	-3	.	.	3.8%	-0.4
Cc1cccc(C(O)c2ncc(-c3ccccc3Cl)[nH]2)c1C (stereo not drawn)	8	.	-10	-5.0	4.8%	-0.9
CC(C)c1cc(C(=O)N2CCCC(Nc3ccc(F)cc3)C2)n[nH]1 (stereo not drawn)	1	-9	-11	-4.8	0.9%	1.1
CCOC(=O)c1cn2nc(Oc3cccc(C(F)(F)F)c3)ccc2n1	4	3	-1	-2.5	0.7%	1.0
Cc1ccc(S(=O)(=O)N2C[C@@H]3[C@H]4CC[C@H](C4)[C@@H]3[C@@H](C)[C@H]2c2ccco2)cc1	3	4	-1	-2.1	5.9%	?
O=C(Oc1c(Cl)cc(Cl)c2cccnc12)c1ccco1	-92*	1	-14	-8.1	6.4%	-0.4
Cc1ccc(NC(=S)NNC(C)(C)C)cc1	-1	22	5	-1.3	0.3%	-0.2
COc1ccc2c(c1)C(=O)C1NC(=O)NC(=O)C1(Br)N2 (stereo not drawn)	6	-5	5	1.0	2.8%	0.9
CCCC(=O)N(Cc1cccnc1)c1nc2c(OC)ccc(Cl)c2s1	3	18	-12	-4.1	3.3%	-0.4
COCCc1nn2c(=O)cc(COC(=O)c3cccs3)nc2s1	.	6	.	.	0.3%	-0.8
COc1cc(CN2CCC(Oc3cc(C(=O)NC4CC4)ccc3OC)CC2)cc(OC)c1	10	-6	0	3.1	-1.6%	-0.7
CCc1cccc(NC(=O)COC(=O)C2CCN(c3ccc(C(F)(F)F)cn3)CC2)c1	13	0	14	6.1	-1.5%	1.7
O=C(NC(=O)c1c(F)cccc1F)Nc1cccc(Oc2ncc(Cl)cn2)c1	3	-8	12	-0.7	4.5%	1.3
CCOC(=O)c1ccccc1NC(=O)CSc1nnc(C(C)C)n1CC	7	33	-2	-1.1	-0.7%	1.8
CC[C@]1(C(=O)OC)[C@H]2C(=O)N(C)C(=O)[C@H]2[C@H]2CN(C)C(=NC3CCCCC3)N21	9	27	10	-0.8	-1.5%	0.7
CCCCNS(=O)(=O)c1ccc2nc(SCC(=O)Nc3sccc3C#N)[nH]c2c1	?	-5	?	4.1	?	0.5
COC(=O)c1ccc(C2NC(C(=O)O)CS2)cc1 (stereo not drawn)	-13	56	-9	-1.6	1.8%[38.3 µM]	-0.3
Cn1c(SCC(=O)Nc2ccc(F)cc2)nc2c([nH]c3ccccc32)c1=O	11	11&9	2	-6.5	11%&0.0%	-0.7&0.9
CC(=O)c1ccc(-n2c(C)c(C(C)=O)c3cc(O)ccc32)cc1	7	-2	6	1.1	-0.2%	1.3

Assay outcomes: PubChem, National Center for Advancing Translational Sciences (NCATS)
